Source: PubChem BioAssay
PMP22 txn: Cell-based coincidence reporter assay to measure PMP22 gene transcription in S16 Pmp22-F2sN cells - Primary screen | 43,000 compounds, 2% hits | Potency, µM (top dose mostly 57.5 µM), for inactives: top-dose activity change, negative = inhibition, actives largely listed as inhibitors | S16 Pmp22-F2sN Schwann cells (luciferase reporters placed in the Pmp22 gene), FLuc/NLuc coincidence luminescence, 24 h | AID 1508649, 2021; active = clear falling dose curves in both reporters; inconclusive = both reporters move, but less clearly or upward; inactive = either reporter flat; the % is the NLuc reporter signal; note: % is set by controls: 0 for no effect and ±100 for the full control effect; some results filed as inactive show a strong effect at the top dose
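S16 Schwann cells carrying FLuc/NLuc coincidence reporter in the Pmp22 3' UTR treated with compound 24 h at 37C; FLuc then NLuc luminescence read sequentially by dual-luciferase reagents.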
HTT prom inh: Primary qHTS for Identification of Small Molecule Inhibitors of Huntingtin Promoter Activity | HEK293 HTT promoter firefly luciferase reporter (activity 0% = vehicle and -100% = no light), 24 h | Potency, µM (series often up to 57.5 µM), for the others: top-dose activity change, negative = inhibition, usual class: inhibitors | 48,000 compounds, 0.93% hits; active = well fitted inhibition curve with a large enough effect; inconclusive = small, poorly fitted or top-dose-only effect; inactive = no such curve, though single readings can be large or run the other way; note: nearly all actives have a fitted effect of over 50% in size
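HEK293 cells carrying firefly luciferase reporters were seeded at 2,500 per well in Opti-MEM and cultured for 24 h. They were then treated with compounds at up to 57.5 uM final for 24 h at 37 degrees C before Dual-Glo luminescence readout.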
The depositor's hits bear a star; ? = inconclusive; . = no result given; [ ] = remark or other dose. Potency is the fitted concentration of half-maximal effect.

SMILES	PMP22 txn	HTT prom inh
Cc1c(-c2nc(-c3ccccc3)no2)nnn1-c1cccc(C(F)(F)F)c1	3%	21%
O=C(NC1(C(F)(F)F)NC(=O)N(CCc2ccccc2)C1=O)c1ccccc1F (stereo not given)	-5%	-5%
O=c1c2cnn(-c3ccc(Cl)cc3)c2ncn1Cc1cccc(C(F)(F)F)c1	-2%	-7%
COc1ccc(Cl)cc1C(=O)Nc1ccc2nc(Nc3cccc(Cl)c3)cc(C)c2c1	?	-19%
COc1ccc(OC(C)C(=O)NCc2nc(-c3cccc(C)c3)no2)cc1 (stereo not given)	-26%	?
CCOc1ccc(NC(=O)c2ccc(-c3ccccc3)s2)cc1	-1%	0%
Cc1cccc(N2CCN(C(=O)c3cc4c(=O)oc5ccccc5c4s3)CC2C)c1 (stereo not given)	?	-14%
Cc1nn(CCCC(=O)NCc2ccccc2Br)c(=O)c2c1sc1ccccc12	-2%	0%
Cc1ccc(NC(=O)CCc2c(C)nc3cc(-c4ccccc4)nn3c2C)cc1F	-6%	2µM*
CC(C)c1ccc(NS(=O)(=O)c2cc(Br)cc3c2N(C(=O)C2CC2)CC3)cc1	?	?
COc1ccc(C(=O)N(Cc2sccc2C)C2CCS(=O)(=O)C2)cc1Cl (stereo not given)	-15%	-14%
Cc1ccc2c(c1)C(=O)OC(C(=O)Nc1ncc(Cc3ccc(Cl)cc3)s1)C2 (stereo not given)	-13%	9%
CCOc1ccc(CNC(=O)c2ccc(CS(=O)c3ccccc3)o2)cc1 (stereo not given)	12%	-8%
CCCCN(CC)C(=O)Cn1c(=O)n(-c2ccc(OCC)cc2)c(=O)c2c3c(sc21)CCCC3	-9%	-26%
CCc1ccc(-n2c(=O)c3cccnc3n2CC(=O)Nc2cc(F)ccc2F)cc1	-19%	-24%
COc1ccc(CNC(=O)CCc2c(C)nc3nc(CNC(=O)OC(C)(C)C)nn3c2C)cc1	-17%	-15%
CCOC(=O)c1ccc(CN(Cc2ccccc2C)S(=O)(=O)c2ccc(F)c(C)c2)cc1	-9%	?
CCOc1ccc(CCNC(=O)Cn2c(C)c3cnn(-c4ccccc4)c(=O)c3c2C)cc1	-19%	-14%
CCOc1ccc(NC(=O)CN2CCN(c3ccc(Cl)cc3)CC2)cc1	7%	-13%
Cc1ccc(NC(=O)C2CCCN(S(=O)(=O)c3c(C)noc3C)C2)cc1 (stereo not given)	-24%	?
Cc1ccn2cc(CNC(=O)c3cccc(C(F)(F)F)c3)nc2c1	0%	-21%
CC(=O)OCC(=O)[C@@]1(O)CC[C@H]2[C@@H]3CCC4=CC(=O)C=C[C@]4(C)[C@@H]3[C@@H](O)C[C@@]21C	.	0%
COc1cc(NS(=O)(=O)c2ccc3c(c2)CCN3S(C)(=O)=O)cc(OC)c1	?	?
COc1ccc(CN2C(=O)c3oc4ccc(F)cc4c(=O)c3C2c2ccc(O)cc2)cc1 (stereo not given)	-14%	-3%
Cn1ncc2c(NCc3ccc(Cl)cc3)ncnc21	-51%	-17%
CCc1cccc2c(CCO)c[nH]c12	.	9%
CC1(C)S[C@@H]2[C@H](N=CN3CCCCCC3)C(=O)N2[C@H]1C(=O)O	.	0%
O=C(Cn1cnc(S(=O)(=O)N2CCCC2)c1)Nc1cccc(F)c1	-16%	-21%
Cc1nn(C(C)C(=O)NC2CCC(C)CC2)c(=O)c2c1sc1ccccc12 (stereo not given)	?	-2%
CCN(CC)CCNC(=O)c1ccc2c(c1)N(Cc1ccccc1)C(=O)c1ccccc1S2=O (stereo not given)	?	-20%
CC(C)N(C(=O)c1cc2c(Cl)nc3ccccc3c2s1)C1CCCCC1	-2%	3%
CCOC(=O)C1CCC(CN(Cc2cccc(Br)c2)S(=O)(=O)c2ccc(Cl)cc2)CC1 (stereo not given)	-25%	-26%
COc1ccc2c3n(c(=NC(=O)c4cccnc4)nc2c1OC)CCN3	.	?
COc1ccc(-c2noc(CCC(=O)Nc3cccc(C)c3C)n2)cc1OC	-20%	?
Cc1ccc(NC(=O)CCSc2nc(-c3ccco3)cc(C(F)(F)F)n2)cc1F	9%	?
O=C(Nc1cc2c(cc1C(=O)c1cccc(Br)c1)OCCO2)c1ccccc1F	?	-11%
Cc1ccc(NC(=O)[C@H](Cc2ccccc2)N2Cc3ccccc3C2=O)cc1	4%	-9%
COc1ccc(-c2cn3nc(N4CCCC(C(=O)Nc5ccc(Cl)cc5C)C4)sc3n2)cc1 (stereo not given)	-99%	-6%
Cc1ccc(N(CC(=O)N2CCN(c3cc(Cl)ccc3C)CC2)S(=O)(=O)c2c(C)noc2C)cc1	-29%	?
COC(=O)CSc1nc2sc3c(c2c(=O)n1-c1ccc(C)cc1)CC(C(C)C)OC3 (stereo not given)	-26%	-2%
COc1ccc(Cl)cc1NC(=O)c1c(NCc2cccnc2)sc2c1CCC(C)C2 (stereo not given)	?	-28%
CC(=O)Nc1cccc(NC(=O)C2(c3cccs3)CCOCC2)c1	9%	-6%
Cc1ccccc1-c1nc(CS(=O)(=O)CC(=O)NC(C)c2ccccc2)c(C)o1 (stereo not given)	?	-28%
CC(C)Oc1ccc(CNC(=O)CCCn2c(=O)c3cccn3c3ccccc32)cc1	?	?
Cc1cc(Cl)ccc1NC(=O)Cn1nnc2sc(-c3ccccc3)cc2c1=O	-3%	7%
COc1ccccc1NC(=O)CSC1=Nc2ccccc2C2=NC(Cc3ccccc3)C(=O)N12 (stereo not given)	?	-21%
CCCCCOc1ccc(/C=C/C(=O)Nc2sc3c(c2C(=O)OCC)CCC3)cc1OC	-18%	1%
Cc1ccc(C)c(-n2nnc(-c3nc(-c4ccccc4C)no3)c2C)c1	?	24%
CCc1ccc(NC(=O)CSc2nc3n[nH]c(C)c3c(=N)n2-c2ccc(C)cc2)cc1	?	-23%
Cc1cc(C(=O)Nc2ccc(-n3c(C)nc4ccccc4c3=O)cc2)ccc1[N+](=O)[O-]	0%	-30%
COc1cccc(C(=O)Nc2ccc(-c3nc4ccc(C)cc4s3)cc2)c1OC	-27%	1%
CN(C)CCNC(=O)C(=O)NCC(c1cccnc1)N1CCN(c2ccc(F)cc2)CC1 (stereo not given)	-17%	-2%
Cc1ccc(NC(=O)C(Cc2ccccc2)NS(=O)(=O)c2ccc3c(c2)CCC(=O)N3)cc1 (stereo not given)	7%	-12%
CC(C)c1ccc(CNc2nc(-c3ccco3)nn2S(=O)(=O)c2ccccc2)cc1	-4%	-3%
COC(=O)c1sccc1S(=O)(=O)N1CCN(c2ccc(C(C)=O)cc2)CC1	5%	-11%
Cc1ccc(OCCSc2nc3ccccc3n2CC(=O)NC(C)C)cc1	-75%	-16%
CCOC(=O)c1ccc2c(c1)N(Cc1cc(C)ccc1C)C(=O)c1ccccc1S2(=O)=O	?	-11%
CCc1ccc(NC(=O)Cn2c(=O)c3cccn3c3ccccc32)cc1	-32%	?
CCc1ccccc1Nc1cc(C(=O)NC2CCC(C)CC2)c2ccccc2n1 (stereo not given)	-84%	39%[activator]
COC(=O)c1ccc(C2c3c(-c4ccccc4O)n[nH]c3C(=O)N2Cc2ccncc2)cc1 (stereo not given)	4%	-8%
Next part.
SMILES	PMP22 txn	HTT prom inh
COc1cc(NC(=O)C2CCCN(S(=O)(=O)c3ccc4c(c3)CCCC(=O)N4)C2)cc(OC)c1 (stereo not given)	6%	-19%
Cn1c(=O)c2nc(SCC(=O)Nc3cc(Cl)cc(Cl)c3)n(C)c2n(C)c1=O	3%	-20%
Cc1ccccc1Nc1c(-c2ccc(Cl)s2)nc2c(C)cccn12	-25%	2%
COc1ccc(-c2cc3c(=O)n(CC(=O)Nc4cc(F)ccc4F)ccn3n2)cc1OC	-5%	?
CCCc1cnc2c(c1SCc1cccc(C)c1)c(=O)n(C)c(=O)n2C	11%	?
Cc1ccc(Cn2c(=O)n(CCc3ccc(Cl)cc3)c(=O)c3ccccc32)cc1	0%	-11%
CC1CCCCN1C(=O)c1ccc2c(c1)N(Cc1ccc(Cl)cc1)C(=O)c1ccccc1S2=O (stereo not given)	?	-34%
O=C(NC1CCCC1)c1ccc(CSc2nc3ccncc3n2Cc2ccc(F)cc2)cc1	-3%	-33%
CCOC(=O)c1nc(Nc2ccccc2OC)c2ccccc2n1	-23%	-22%
COc1ccc(NC(=O)CCc2nc3c(C)nn(-c4ccc(C)cc4)c3n(C)c2=O)cc1	16%	3%
Cc1cc2oc(C(=O)Nc3ccc(S(N)(=O)=O)cc3)cc(=O)c2cc1C	-4%	-1%[11.5 µM]
COc1ccc(NC(=O)C2CCN(S(=O)(=O)c3ccc4c(c3)CCCC(=O)N4)CC2)cc1OC	-29%	-4%
CC(CNC(=O)c1cc(-c2ccccc2)n[nH]1)c1ccccc1 (stereo not given)	10%	27%
CCCCc1nn2c(=O)cc(COC(=O)c3cccc(NC(=O)c4cccc(C)c4)c3)nc2s1	?	?
CCc1ccc(S(=O)(=O)c2nnn3c2nc(NCCc2ccccc2)c2sccc23)cc1	?	?
Cc1cn([C@H]2C[C@H](F)[C@@H](CO)O2)c(=O)[nH]c1=O	.	-4%
CCc1ccc(CNC(=O)c2ccc3c(c2)c(C)c(C)n3Cc2ccccc2)cc1	-10%	-28%
O=C(O)Cc1ccc(OCCNC[C@H](O)c2ccccc2)cc1	.	6%
CCOC(=O)N1CCN(Cc2nc3cc(NC(=O)c4ccccc4OC)ccc3n2C(C)C)CC1	?	?
COc1cc(NC(=O)N2CCC(CN3CCCC3)CC2)cc(OC)c1OC	-6%	-5%
CCOC(=O)N1CCc2c(sc3c2c(=O)n(-c2ccc(CC)cc2)c(=O)n3Cc2cc(C)ccc2C)C1	-1%	-7%
CC1CCCN(C(=O)Cn2c(=O)n(CC3CCC(C(=O)NC(C)C)CC3)c(=O)c3sccc32)C1 (stereo not given)	6%	-2%
Cc1ccc(Cl)cc1NC(=O)Cn1c(=O)n(CCCS(=O)(=O)C2CCCCC2)c(=O)c2ccccc21	?	-20%
CSc1ncc(C(=O)Nc2cc(C)cc(C)c2)c(-c2ccccc2)n1	-10%	-10%
N[C@H](CSC(c1ccccc1)(c1ccccc1)c1ccccc1)C(=O)O	.	-11%
COc1ccc(NC(=O)C2=C(C)Nc3nc(SCc4ccccc4)nn3C2c2cc(OC)ccc2OC)cc1 (stereo not given)	-14%	-16%
Cc1ccc(N2CC(C(=O)NCCS(=O)(=O)N3CCN(c4ccccc4F)CC3)CC2=O)cc1 (stereo not given)	6%	-7%
Cc1[nH]c(=O)[nH]c(=O)c1S(=O)(=O)N1CCN(c2cccc(Cl)c2)CC1	10%	-1%
COc1ccccc1NC(=O)CSC1=Nc2ccccc2C2=NC(CC(=O)NCc3cccs3)C(=O)N12 (stereo not given)	-56%	-26%
COc1ccc(-n2c3c(cc(-c4nc(-c5ccc(Cl)cc5)cs4)c2=O)C(=O)CC(C)(C)C3)cc1	-2%	-2%
COc1ccc(Cl)c2sc(NC(=O)c3ccc(S(=O)(=O)N4CCCC4)cc3)nc12	-34%	4%
Cc1cc(Nc2cc(NC(=O)c3c(Cl)cccc3Cl)ccn2)nc(N)n1	.	-16%
